Mtb hypoxia rep – Mtb hypoxia fluorescent reporter inhibition; actives 0.1% (n = 300,000); fluorescence inhibition, % (concentration not given with the values); M. tuberculosis hypoxia-regulated fluorescent reporter, fluorescence;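 active means 35 to 45% if threefold the growth effect, above 45% if 1.5-fold the growth effect; inactive means the rest, general growth blockers included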;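 further: wells of about 50 µL received 100 nL stock; 0% = vehicle wells and 100% = reference inhibitor wells; whole bacteria with a GFP reporter of the hypoxia response; strong numbers were not always called active; many hits fall short of the cut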
BJeLR lethal – BJeLR cell viability loss; AID 1554; BJeLR (HRASV12) viability, CellTiter-Glo ATP luminescence, 48 h; reference of the scale not given here; actives 0.17% (n = 300,000); inhibition, % (concentration not given with the values);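 active means replicate mean above 50%; inconclusive means above 50% but judged a plate artefact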;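 further: 50 nL library stock added to about 25 µL; numbers are from one replicate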
Sa ugtP lethal – kills S. aureus RN4220 lacking UgtP; actives 0.54% (n = 330,000); AID 1259309; growth inhibition, % (no concentration beside the values); S. aureus RN4220 ugtP deletion, OD600 growth, 16 h; some inactives read as strong as hits;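 active means z-score under -3 and OD600 up to 0.15 on both plates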;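 further: plate controls were untreated wells for no effect and antibiotic for full effect; wells of about 80 µL received 100 nL stock; the first replicate is given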
Sa RN4220 lethal – kills Staphylococcus aureus RN4220 | actives 0.33% (n = 330,000) | S. aureus RN4220 growth, OD600, 16 h | AID 1259311 | inhibition, % (no concentration beside the values);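 active means z-score of -3 or lower and OD600 up to 0.18 on both plates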;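 further: plate controls were untreated cells for no effect and reference antibiotic for full effect; stock transfer was 100 nL into about 80 µL; one replicate is shown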
Autofluor counter – compound fluorescence in toxin protease inhibitor counterscreen; compound autofluorescence counterscreen, microsphere flow cytometry; active compounds read high; fluorescence intensity (concentration not given with the values); actives 3.1% (n = 360,000);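 active means at least 3 SD above the mean of all compounds, about 16000 in these data; inconclusive means too few beads counted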;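 further: 100 nL of 1 mM stock went into each well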
PrP 5UTR inh – suppresses PrP 5' UTR mRNA reporter expression; cell-based PrP 5' UTR mRNA reporter, plate reader; inhibition, % (no concentration beside the values); actives 0.35% (n = 340,000); AID 488862;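 active means every replicate at 50% or more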;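 further: 0 = median of the neutral control wells; tested in H4 reporter cells; numbers are from one replicate; inactives centre near -14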
Mtb hypoxia rep growth – second read-out of Mtb hypoxia rep, no call of its own (marks repeat the call); growth inhibition, %; measured here: M. tuberculosis growth (absorbance);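 0% = vehicle and 100% = reference antibiotic; read after six days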
Numbers without * were called inactive; ? = inconclusive; nt = not tested or not shown.

SMILES	Mtb hypoxia rep	Mtb hypoxia rep growth	BJeLR lethal	Sa ugtP lethal	Sa RN4220 lethal	Autofluor counter	PrP 5UTR inh
CC(C(=O)c1c[nH]c2ccccc12)N1CCN(C(=O)c2ccco2)CC1 (configuration not stated)	16	-6	-21	10	2.4	6737	-18
COC(=O)c1ccccc1NC(=O)CN(c1ccccc1)S(=O)(=O)N(C)C	19	8	-6	4	9.9	7966	-10
CC(C)CC(NS(=O)(=O)c1ccccc1S(=O)(=O)NC(CC(C)C)C(=O)O)C(=O)O (configuration not stated)	4	2	8	-1	1.6	4574	-19
S=C(Nc1ccc(Br)cc1)NC1CCCC1	6	0	2	2	-0.4	2538	-70
CC1=C2C3OC(=O)C(C)C3CCC2(C)C=CC1=NO (configuration not stated)	22	7	nt	3	2.3	3521	-14
CCCCN(C(=O)c1cc2c(s1)CCCC2)c1c(N)n(CCC)c(=O)[nH]c1=O	3	4	nt	5	-2.3	5622	nt
O=C1CCc2cc(NS(=O)(=O)c3ccc([N+](=O)[O-])cc3)cc3c2N1CC3	-2	7	2	10	20	?	4
COc1ccc(C2C(C(=O)N3CCCC3)c3cc(OC)c(OC)cc3C(=O)N2C)cc1OC (configuration not stated)	8	4	-6	1	1.0	9493	5
Cc1ccc2nc(C)c(C(=O)NN=Cc3ccccc3[N+](=O)[O-])cc2c1	10	3	nt	8	5.6	nt	nt
O=C1CCC(C(=O)N2CCCCO2)CN1Cc1ccc(Cl)cc1 (configuration not stated)	1	2	-5	2	2.7	4572	-9
CC(=O)N1CCc2c(sc3c2c(=O)n(-c2ccccc2)c(=O)n3CC(=O)NCC2CCCO2)C1 (configuration not stated)	-1	-2	1	-5	-13	4386	6
CC(O)CN(Cc1cccc(Cl)c1)CC(C)O (configuration not stated)	5	9	nt	1	0.8	10331	-20
CC(=O)NC1(C2CCCCC2=O)CCCCC1 (configuration not stated)	6	-2	-6	2	2.1	3092	-15
CN(C(=O)c1ccc(NC(=O)Cc2ccc(NC(=O)C3CCN(C(=O)C4CCCC4)CC3)cc2)cc1)C1CCCC1	-12	1	nt	1	3.4	3727	-17
O=C(CCNS(=O)(=O)c1ccccc1)OCC(=O)c1ccc(F)cc1	6	0	-4	10	5.6	?	-25
CC(=O)NC(Cc1c[nH]c2ccccc12)C(=O)Nc1ccc2c(c1)OCO2 (configuration not stated)	nt	nt	5	-1	3.1	4352	-17
CC1(C)CC(=O)C(C=NCCN2CCN(CC(=O)Nc3ccc(Cl)cc3)CC2)=C(O)C1	11	3	14	-2	2.9	3285	-20
CC(C)Cn1c(N2CCN(CC(=O)Nc3ccc(Cl)cc3)CC2)nc2ccccc21	6	7	3	-4	-8.3	3291	-18
Cc1ccccc1NS(=O)(=O)c1ccc(C(=O)NCC(c2ccccc2)N(C)C)cc1 (configuration not stated)	-4	4	-1	2	-0.5	4414	-20
N#Cc1ccc(CN2CCN(C(=O)Cn3nc(C(N)=O)c4ccccc4c3=O)CC2)cc1	3	12	-9	-5	-2.5	3626	-16
COc1ccc(NC(=O)Nc2nccs2)cc1	3	2	11	4	0.9	8084	nt
COc1ccc(C(=O)COC(=O)Cn2cnc3ccccc3c2=O)c(OC)c1	4	9	-3	4	1.8	5278	-41
NS(=O)(=O)c1ccc(-c2ccc(C=NNc3ccc(C(=O)O)cc3)o2)cc1	7	6	nt	-6	3.9	nt	nt
CCOc1ccc2c(c1)S/C(=C\c1cccs1)C(=O)N2	5	7	29	2	-3.4	3182	-28
Cc1oc(N=Cc2ccccc2O)c(C#N)c1C	-3	3	nt	2	0.5	nt	nt
Cc1ccc2c(c1)C(c1ccc(F)cc1)N(C(=O)C1CC1)CC(=O)N2 (configuration not stated)	5	7	-1	11	-1.2	4373	-23
Cc1cc(C)cc(CN2C(=O)NC3(CCCCCC3)C2=O)c1	-8	-3	6	0	4.6	3118	nt
COc1cc(C2C(C(=O)c3ccco3)=C(O)C(=O)N2Cc2cccnc2)cc(OC)c1OC (configuration not stated)	2	0	10	7	1.7	7230	-15
CCC(C)C(NC(=O)Nc1cccc(Cl)c1)C(=O)O (configuration not stated)	12	3	nt	2	1.5	nt	nt
Cc1ccccc1OCC(=O)NCC(=O)OCC(=O)c1ccc([N+](=O)[O-])cc1	0	0	-5	3	5.8	5710	-10
CC(CC(=O)N1CCN(S(=O)(=O)c2ccc([N+](=O)[O-])cc2)CC1)c1ccccc1 (configuration not stated)	1	1	nt	14	5.6	2882	-16
COC(=O)c1cc(S(=O)(=O)N2CCN(Cc3ccccc3)CC2)cn1C	1	0	7	-4	3.0	6297	-6
COc1cc(C2/C(=C(\O)c3ccc4c(c3)OCCO4)C(=O)C(=O)N2Cc2ccco2)ccc1O (configuration not stated)	-3	1	14	-2	3.8	4510	-4
CSCCC(NS(=O)(=O)c1ccc(C)cc1)C(=O)N1CCCC1 (configuration not stated)	-8	6	-3	2	-0.1	6505	-7
COc1cccc(/C=N/Nc2nnc(C)n2N)c1O	nt	nt	-6	nt	nt	3310	-5
O=S(=O)(NCc1cc(-c2ccccc2Cl)no1)c1ccccc1	5	1	5	6	7.7	3400	-20
C=CC[C@H]1CC(C)=C[C@H](CC=C)N1C(=O)c1cc(COc2ccccc2SC)on1	10	2	0	11	3.0	6475	-12
CCCOc1ccc(-c2nc(C#N)c(N3CCN(CC)CC3)o2)cc1	nt	nt	20	-12	-11	2702	-7
CCC(=NCc1cccnc1)c1c(O)n(-c2ccccc2C)c(=O)[nH]c1=O	-7	7	-9	1	1.1	3658	-11
Cc1ccc(S(=O)(=O)N2CCOCC2)cc1C(=O)OCC(=O)N1CCc2ccccc2C1	-6	-5	-2	6	2.0	3348	-15
O=[N+]([O-])c1cc(CN2CCC(O)CC2)ccc1Cl	15	11	-12	3	0.1	4283	8
O=C1C=CC(=O)N1c1ccc2c(c1)Cc1cc(F)ccc1-2	18	10	nt	9	8.0	3237	-14
Cc1nnc(SC(C(=O)Nc2cc(Cl)cc(Cl)c2)c2ccccc2)[nH]c1=O (configuration not stated)	-3	2	-4	14	23	4983	-23
COc1cccc(/C=C2/NC(=O)NC2=O)c1OCC(=O)Nc1ccccc1	10	3	22	3	1.4	4631	-6
O=C(O)C1C2CCC(CC2)C1C(=O)N1CCN(Cc2ccc(F)cc2)CC1 (configuration not stated)	12	-1	-1	0	-1.3	4327	-16

Four structures from above, ordered by SMILES length, smallest number first.
SMILES	Mtb hypoxia rep	Mtb hypoxia rep growth	BJeLR lethal	Sa ugtP lethal	Sa RN4220 lethal	Autofluor counter	PrP 5UTR inh
COc1cccc(/C=N/Nc2nnc(C)n2N)c1O	nt	nt	-6	nt	nt	3310	-5
O=[N+]([O-])c1cc(CN2CCC(O)CC2)ccc1Cl	15	11	-12	3	0.1	4283	8
COc1cccc(/C=C2/NC(=O)NC2=O)c1OCC(=O)Nc1ccccc1	10	3	22	3	1.4	4631	-6
O=C(O)C1C2CCC(CC2)C1C(=O)N1CCN(Cc2ccc(F)cc2)CC1 (configuration not stated)	12	-1	-1	0	-1.3	4327	-16

Further structures
SMILES	Mtb hypoxia rep	Mtb hypoxia rep growth	BJeLR lethal	Sa ugtP lethal	Sa RN4220 lethal	Autofluor counter	PrP 5UTR inh
C=CCNC(=O)c1ccccc1NC(=O)C1CC(=O)N(C(C)C)C1 (configuration not stated)	18	7	12	3	1.2	4029	-8
O=C(Nc1ncc([N+](=O)[O-])s1)c1ccc2c(c1)OCO2	nt	nt	34	nt	nt	4257	69*
COCCCNC(=O)CC1C[C@H](C(=O)N(C(C)C)C(C)C)[C@@]2(C)c3[nH]c4ccc(OC)cc4c3CCN2C1=O (some centres not stated)	-9	5	nt	2	4.9	4699	-8
Cc1cc(C)nc(N(C#N)S(=O)(=O)c2ccccc2Cl)n1	-1	0	6	1	0.1	3743	4
O=C(CN1CCCCC1)NC(=O)NC1CCCCC1	9	1	nt	4	3.0	6194	-21
CCC(=O)N1CCc2cc(S(=O)(=O)CCC(=O)Nc3c(C)n(C)n(-c4ccccc4)c3=O)ccc21	5	-3	nt	4	2.1	nt	nt
COc1ccc(CNC(=O)CCC(=O)c2ccc(F)cc2)cc1OC	5	7	nt	1	1.8	3966	-9
CC(=O)Nc1ccccc1C(=O)N1CC(C)OC(C)C1 (configuration not stated)	nt	nt	-3	5	3.0	3446	4
Fc1ccc(OCCOCCN2CCCC2)cc1	16	4	-2	8	2.3	6189	-29
O=[N+]([O-])c1ccc(/C=N/Nc2ccc3ccccc3c2)o1	nt	nt	0	nt	nt	3338	19
CC(=O)N/C(=C\c1ccccc1)C(=O)OCC(=O)NC(C)C12CC3CC(CC(C3)C1)C2 (configuration not stated)	11	6	3	7	2.0	7686	-12
COc1cc(S(=O)(=O)Nc2cccnc2)ccc1Cl	-4	-6	-2	9	5.9	3557	-17
CC(=O)Nc1ccc(S(=O)(=O)NCC2CCC(C(=O)NC(C)c3ccccc3)CC2)cc1 (configuration not stated)	1	0	1	8	-1.9	4119	-15
Cc1ccc(S(=O)(=O)N2CC3(C)CN(S(=O)(=O)c4ccc(C)cc4)CC(C)(C2)C3)cc1	-6	-3	13	-3	1.1	10690	-9
CCN=C1Cn2c(nc3scc(-c4ccccc4)c3c2=O)CN1CC	4	11	nt	13	3.2	9289	-40
O=C(N/N=C/C(Cl)=C\c1ccccc1)c1cnccn1	nt	nt	0	nt	nt	3522	-15
CC(=N)C1=C(O)CC(C)(C)CC1=O	nt	nt	-13	11	1.1	2255	-27
O=C(OCC(=O)c1ccc(Cl)cc1Cl)c1ccc2c(c1)C(=O)N(c1cccc3ncccc13)C2=O	2	3	-3	7	3.2	5675	-14
C/C=C/Cn1c(N2CCCCCC2)nc2c1c(=O)[nH]c(=O)n2C	nt	nt	6	6	-0.2	3740	-3
Cc1cccc(COCC(Cc2ccccc2)N2CCN(C(=O)c3ccc(Cl)c(Cl)c3)CCC2=O)c1 (configuration not stated)	11	-2	0	-20	-1.5	3987	-9
CC(=NNS(=O)(=O)c1ccc(Cl)c([N+](=O)[O-])c1)c1ccc(C)o1	3	3	nt	1	8.2	nt	nt
COC(CSc1ncnc2c1oc1nc3c(cc12)COC(C)(C)C3)OC	9	-4	5	8	4.0	4274	-28
CN(C)S(=O)(=O)c1ccc(SCC(=O)Nc2ccc3c(c2)OCCO3)nc1	-1	-5	nt	2	2.5	?	-13
O=C1CC(N2CCN(S(=O)(=O)c3ccc(Cl)cc3)CC2)C(=O)N1CCc1ccccc1 (configuration not stated)	-1	2	4	-4	5.2	5485	-13
CC(C)Oc1ccc(/C(O)=C2/C(=O)C(=O)N(Cc3cccnc3)C2c2ccco2)cc1 (configuration not stated)	nt	nt	1	4	3.6	4941	-10
O=C(CSc1nnc(-c2cccc(F)c2)o1)Nc1nncs1	-6	-9	3	6	9.0	3347	-16
CCCCN1CCC(C#N)(Nc2ccccc2)CC1	9	8	5	-9	11	24452*	-22
COc1ccc(C=NN=C2CC(C)(C)Cc3n[nH]c(=O)cc32)cc1	5	2	nt	-1	-0.2	nt	nt
Cc1cc(C)c2cc(C(=O)N3CCC(C(=O)c4ccc(F)cc4)CC3)[nH]c2c1	-4	-6	-1	-17	-1.2	6073	-16
O=S(=O)(c1cc(F)ccc1F)N1CCC2(CC1)OCCO2	0	-4	2	-1	2.1	6022	2
CCOC(=O)N1CCC(N(CCN(C)C)C(=S)Nc2ccccc2OCC)CC1	5	7	15	3	1.8	3287	2
Cc1cc(C)cc(NC(=O)COC(=O)CCn2c(C)csc2=O)c1	-6	3	nt	3	-0.5	5553	-5
COc1ccc2c(c1)c(N=NC(N)=S)c(O)n2CC(=O)c1ccccc1	-5	-1	-1	5	2.3	3876	-13
Cc1onc(-c2ccccc2)c1C(=O)N1CCCC1	11	4	2	6	-1.9	6305	-24
CCOc1ccccc1C1C(C(=O)OC)=C(N)OC2=C1C(=O)CCC2 (configuration not stated)	1	6	0	11	1.8	6292	-44
Cc1ccc(S(=O)(=O)N[C@@H](Cc2ccccc2)C(=O)N2CCC[C@@H]2C(=O)O)cc1	-1	12	-2	7	1.1	3543	-3
Cc1ccc(CN(c2ccc(C(=O)NCc3ccccn3)cc2)S(C)(=O)=O)cc1	17	-2	1	17	4.2	14231	-10
CCN(CC)CCn1c(=N)n(CC(O)c2ccco2)c2ccccc21 (configuration not stated)	5	2	5	8	5.7	2381	-21

Screening results as filed in PubChem BioAssay.
